# Screens: PubChem, several laboratories
# Insulin prom inh = TRM-6 insulin promoter activity inhibition | TRM-6 cells (human fetal islet line), insulin promoter-eGFP reporter, imaging; reporter expression induced with tamoxifen | inhibition, % at 2 µM | 130,000 tested, 0.9% active;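 active = inhibition above the mean plus 3 SD, with well images judged a real hit on visual review, cut at about 60% in these data, passing the limit was not always enough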
# PKD1 kinase inh = inhibitors of human PKD1 kinase; Q15139; PKD1 kinase fluorescence polarization assay; inhibition, %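 (about 10 µM by stock and volumes)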; 200,000 tested, 0.056% active; AID 797;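 active = inhibition of 50% or more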;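 note: controls were vehicle for no effect and a reference inhibitor for full effect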
# HSV replic up = HSV replication enhancement | AID 1956 | 220,000 tested, 0.005% active | maximum fold increase | HSV replication augmentation in cells, fold increase;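 active = peak rise of 1.5-fold or more in the series; tested in PC3 cells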;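 note: first round at 10 µM; read as green reporter fluorescence; hits show the peak of a series up to 25 µM; 1 = signal of infected wells without compound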
# GALR2 ag = agonists of human galanin receptor 2 (GALR2) | O43603 | GALR2-expressing cells, agonist activation read-out | activation, %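 (tested at 5 µM)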 | 140,000 tested, 0.48% active;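 active = above mean plus 3 SD of all compounds, about 5% in these data, not always enough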;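 note: 0% = vehicle buffer wells and 100% = reference agonist at full effect; tested in CHO reporter cells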
# Target sequence (O43603 whole entry, looked up): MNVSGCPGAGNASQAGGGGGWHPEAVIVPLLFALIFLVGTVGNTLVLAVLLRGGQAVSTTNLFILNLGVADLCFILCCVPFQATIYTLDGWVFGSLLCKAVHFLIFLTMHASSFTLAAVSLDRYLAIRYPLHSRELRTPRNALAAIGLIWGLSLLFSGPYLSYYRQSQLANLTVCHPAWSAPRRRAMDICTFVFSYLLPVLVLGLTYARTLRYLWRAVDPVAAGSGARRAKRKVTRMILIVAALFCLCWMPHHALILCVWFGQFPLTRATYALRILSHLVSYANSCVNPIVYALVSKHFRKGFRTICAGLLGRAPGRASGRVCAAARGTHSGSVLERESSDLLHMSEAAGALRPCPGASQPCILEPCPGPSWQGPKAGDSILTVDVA
# RGS16-Gao HTS = RGS16-Galphao interaction regulator (human) | O15492+P09471 | bead-based flow cytometry RGS16-Galphao binding, fluorescence; actives lie on both sides | binding response (% of control), % at 10 µM | 220,000 tested, 0.38% active | AID 1441;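 active = below 25% or above 175%, edge rows of some plates excepted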;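 note: Galphao activated by GDP with aluminum fluoride before binding; 100% = wells without compound and 0% = beads without RGS; some results beyond the cut were filed as inactive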
# Target sequence (O15492 whole entry, looked up): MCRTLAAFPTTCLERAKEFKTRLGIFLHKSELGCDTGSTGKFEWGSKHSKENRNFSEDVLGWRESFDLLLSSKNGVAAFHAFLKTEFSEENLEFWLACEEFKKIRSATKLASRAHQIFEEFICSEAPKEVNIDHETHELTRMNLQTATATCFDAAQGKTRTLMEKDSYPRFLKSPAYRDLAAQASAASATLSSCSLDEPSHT
# Target sequence (P09471 whole entry, looked up): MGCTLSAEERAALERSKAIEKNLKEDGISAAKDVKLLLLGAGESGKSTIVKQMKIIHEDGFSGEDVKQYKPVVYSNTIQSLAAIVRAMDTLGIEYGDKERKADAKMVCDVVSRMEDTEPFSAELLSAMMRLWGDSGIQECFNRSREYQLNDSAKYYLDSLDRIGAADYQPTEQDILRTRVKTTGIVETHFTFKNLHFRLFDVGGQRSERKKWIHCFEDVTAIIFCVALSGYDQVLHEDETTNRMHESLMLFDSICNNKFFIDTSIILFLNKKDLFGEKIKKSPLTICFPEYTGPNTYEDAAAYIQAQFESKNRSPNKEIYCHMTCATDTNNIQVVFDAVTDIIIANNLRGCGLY
# Insulin prom inh cell count = further read-out of Insulin prom inh, marked with its call; normalized cell count, %; measured here: cell count, toxicity; reference of the scale not given here;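 cells exposed to compound for 48 h; stained nuclei by imaging scaled within each plate; lower means fewer cells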
# HSV replic up primary fold = also measured in HSV replic up; calls as there; fold increase; compound at 10 µM; measured here: primary screen fold increase 10 uM; tested in PC3 cells;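 GFP signal in the first replicate; 1 = infected wells without compound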
# * marks the source's active call; other numbers are inactive results; i = inactive; / = no result given; & = joins results of further samples.
mol,Insulin prom inh,Insulin prom inh cell count,PKD1 kinase inh,HSV replic up,HSV replic up primary fold,GALR2 ag,RGS16-Gao HTS
COC(=O)C(C(=O)OC)=C(/C=C/N(C)C)N(C)C,/,/,0,i,0.78,-1.7,102
Cc1ccc(C(=O)/C=C2\NCCNC2=O)cc1,15,80,-1,i,0.99,-4.3,34
COc1ccc(NC(=O)c2nnn(Cc3ccc(SC)cc3)c2N)c(OC)c1,/,/,-8,i,0.77,-0.8,102
Clc1ccccc1Sc1ccc(-c2ccccn2)s1,/,/,/,i,0.97,/,106
O=C(N/C(=C/c1ccccc1)C(=O)N1CCOCC1)c1ccc([N+](=O)[O-])cc1,/,/,-7,i,0.97,/,105
CCN1C(=O)CC(NCc2ccc(S(N)(=O)=O)cc2)C1=O (centres undefined),/,/,/,i,0.97,/,83
CCc1ccc(/C=C2\SC(=S)N(CCC(=O)Nc3cc(C)on3)C2=O)cc1,/,/,4,i,1.3,/,96
O=C(NN/C(=N/S(=O)(=O)c1ccc(Cl)cc1)c1ccccc1)c1ccc(O)cc1,-9,139,-4,i,0.98,-0.1,106

# Retrieved by structure from the entries so far (two):
mol,Insulin prom inh,Insulin prom inh cell count,PKD1 kinase inh,HSV replic up,HSV replic up primary fold,GALR2 ag,RGS16-Gao HTS
CCc1ccc(/C=C2\SC(=S)N(CCC(=O)Nc3cc(C)on3)C2=O)cc1,/,/,4,i,1.3,/,96
O=C(NN/C(=N/S(=O)(=O)c1ccc(Cl)cc1)c1ccccc1)c1ccc(O)cc1,-9,139,-4,i,0.98,-0.1,106

# Next results
mol,Insulin prom inh,Insulin prom inh cell count,PKD1 kinase inh,HSV replic up,HSV replic up primary fold,GALR2 ag,RGS16-Gao HTS
Cc1ccc(/C=c2\s/c(=C(/C#N)C(=O)N3CCCC3)n(Cc3ccco3)c2=O)s1,/,/,3,i,0.93,-1.3,87
O=C(c1cc(S(=O)(=O)N2CCCCC2)ccc1F)N1CCCCC1,/,/,-7,i,1,-3.1,96
CNC(=O)c1cc(NC(=O)CCn2nc(-c3ccc(C)cc3)c3ccccc3c2=O)ccc1OC,/,/,/,i,1.1,/,96
COc1ccc(CN(C(=O)c2oc3ccccc3c2C)C2CCS(=O)(=O)C2)cc1OC (centres undefined),-64,137,-2,i,0.94,-4.0,78
Cc1cc(C)n2nc(S(=O)(=O)NC3CCCCC3)nc2n1,/,/,13,i,0.97,-1.5,101
Cc1ccc(N(Cc2ccccc2F)S(C)(=O)=O)c(C)c1,/,/,-4,i,1,/,99
O=C1CSC(c2cn(-c3ccccc3)nc2-c2cc3ccccc3oc2=O)N1Cc1ccco1 (centres undefined),-71,116,4,/,/,-2.7,98
O=C(O)CCc1nc(-c2ccccc2)no1,/,/,19,i,0.97,-3.4,101
O=C(NCc1ccc2c(c1)OCO2)c1cccc(F)c1,-62,113,-8,i,1,-0.5,98
O=C(Cn1c(SCC(=O)N2CCCc3ccccc32)nc2ccccc21)N1CCCC1,-300,83,-5,i,1,-2.8,104
CC(CN1CCOCC1)OC(=O)CCc1ccccc1 (centres undefined),/,/,-3,i,1,/,102
CCc1c(C)nc(SCC(=O)NNC(=O)Cc2ccc(OC)cc2)[nH]c1=O,/,/,/,i,0.81,/,113
O=C(c1cc2c(ccc3ccccc32)oc1=O)N1CCCC1,29,79,-11,i,0.95,-0.2,109
CCOC(=O)c1cc(-c2ccc(F)cc2)n(CCC(=O)NC2CCN(Cc3ccccc3)CC2)c1C,14,132,-5,i,0.74,/,104
COc1cc2c(cc1OC)C1(Nc3c-2c(Cc2ccccc2)nn3-c2ccccc2)C(=O)Nc2ccccc21 (centres undefined),28,77,-3,i,1,1.3,98
CN(C)CCCC1(O)c2ccccc2CCc2ccccc21,14,122,-1,i,0.91,/,112

# An excerpt from above in order of SMILES length, highest first.
mol,Insulin prom inh,Insulin prom inh cell count,PKD1 kinase inh,HSV replic up,HSV replic up primary fold,GALR2 ag,RGS16-Gao HTS
COc1cc2c(cc1OC)C1(Nc3c-2c(Cc2ccccc2)nn3-c2ccccc2)C(=O)Nc2ccccc21 (centres undefined),28,77,-3,i,1,1.3,98
CCc1c(C)nc(SCC(=O)NNC(=O)Cc2ccc(OC)cc2)[nH]c1=O,/,/,/,i,0.81,/,113
O=C(c1cc2c(ccc3ccccc32)oc1=O)N1CCCC1,29,79,-11,i,0.95,-0.2,109

# Next section:
mol,Insulin prom inh,Insulin prom inh cell count,PKD1 kinase inh,HSV replic up,HSV replic up primary fold,GALR2 ag,RGS16-Gao HTS
OCCC1CN(Cc2cccn2-c2cccnc2)CCN1Cc1ccc(F)cc1 (centres undefined),-20,111,0,i,0.89,/,123
COc1ccc(-c2csc(N(CCc3ccc(OC)c(OC)c3)C(=O)COc3ccccc3)n2)cc1,-15,110,-2,i,0.85,-5.6,111
CC(Oc1ccc(C(C)(C)C)cc1)c1ccnc2nc(/N=C/N(C)C)nn12 (centres undefined),26,120,-16,i,0.91,-2.1,90
CC(C)C(c1nnnn1Cc1ccco1)N1CCC(C(N)=O)CC1 (centres undefined),49,147,-16,i,1,-1.9,104
Cc1c(NC(=O)Oc2ccccc2)sc(=S)n1C,-14,137,-1,i,0.91,-0.7,99
CC(Oc1ccc(F)cc1)C(=O)NN (centres undefined),0,96,-6,i,1.1,-1.6,98
O=C(CN1CCCC1)N/N=C/c1ccc(-c2cccc(Cl)c2)o1,/,/,-8,i,1,-2.9,102
O=C1CN(C(=O)COc2ccccc2F)c2ccccc2N1,4,81,-8,i,1,-1.2,106
C=CCNc1nc2c(c(=O)n(C)c(=O)n2C)n1CC(=C)C,/,/,/,i,0.95,/,100
CN(C)c1ccc(C(CNC(=O)c2ccc(C#N)cc2)c2c[nH]c3ccccc23)cc1 (centres undefined),13,100,10,i,0.9,-0.8,42
Brc1ccc(C2=Nn3c(nnc3-c3ccncc3)SC2)cc1,16,215,0,/,/,0.4,/
CC(=O)N(C1=C(N)C(=O)c2ccccc2C1=O)C(C)C,/,/,-2,i,1.1,/,93
Cn1cnc([N+](=O)[O-])c1Nc1ccc(O)cc1,-29,119,3,i,1,-1.6,98
c1ccc(-c2ccc(-c3nc(-c4ccncc4)no3)cc2)cc1,-6,118,-9,i,0.92,-0.8,103
CC1CCN(C(=O)C2CCN(S(=O)(=O)c3cccnc3)CC2)CC1,18,65,-5,i,1.1,-3.1,100
CC(=O)NC(c1ccccc1)c1c(O)ccc2ccccc12 (centres undefined),/,/,4,i,1,/,104
CCc1c(C)sc(NC(=O)c2cccs2)c1C(=O)OC(C)C,27,84,2,i,0.89,-1.4,99
C=CCn1cc(C(=O)OCC)c(=O)c2ccc(F)cc21,12,64,-4,i,1.1,/,102
CSCCC(NS(=O)(=O)c1ccc(Cl)cc1)C(=O)OCC(=O)N(C(C)C)C(C)C (centres undefined),-22,127,-1,i,0.96,-1.8,102
CS(=O)(=O)Nc1ccc(C(=O)Nc2ccc3c(c2)OCCO3)cc1,-4,86,-8,i,0.99,-1.3,100
COC(=O)c1nnn(CC(=O)NC(=O)Nc2cccc(Cl)c2C)c1C(=O)OC,44,129,0,i,0.95,/,100
CN(C)CC(C)(C)CN=Cc1c(O)[nH]c2ccccc12,/,/,/,i,1.1,/,100
COc1ccc2c(c1)C=C(C(=O)OCc1cccnc1)CO2,/,/,3,i,1,/,104
Cc1cccnc1Nc1nc(-c2ccc(O)c(O)c2)cs1,-29,104,7,i,0.76,-0.5,104
CC(=O)c1cnc2c(-c3ccc(Cl)cc3)c(C)nn2c1C,-329,42,-10,i,0.95,-1.7,100
O=C(CSCc1cccs1)N1CCCC1,-4,115,-4,i,1,-1.3,-20
CCN(CC)C(=O)CSc1nc2cc3c(cc2c(=O)n1Cc1ccc(OC)cc1)OCO3,21,86,-10,i,0.6,/,102
COc1ccc(NC(=O)c2ccc(-n3cncn3)c([N+](=O)[O-])c2)cc1,/,/,-5,i,1.3,/,109
Cc1ccccc1N=C(NOCc1ccc(Cl)cc1Cl)c1nonc1N,-42,88,-6,i,0.97,1.2,/
O=C(O)CSc1nnc(-c2cccc(S(=O)(=O)N3CCOCC3)c2)n1-c1cccc(Cl)c1,/,/,/,i,0.81,/,103
O=C(O)c1ccc(N2CCOCC2)c(N2C(=O)C3C4C=CC(C4)C3C2=O)c1 (centres undefined),40,77,-3,i,0.93,/,107
O=C(CC1C(=O)N(Cc2ccccc2)C(=S)N1CCN1CCOCC1)Nc1ccc(F)cc1 (centres undefined),-60,132,-5,i,0.84,/,110
Cc1ccc(-n2nnnc2SCC(=O)NC(C(=O)O)(c2ccccc2)c2ccccc2)cc1C,/,/,-2,i,1,/,103
Cc1ccc2nc(NCc3ccccc3)c(C#N)cc2c1,/,/,/,i,1.1,/,100
O=C(COC(=O)c1cccnc1Cl)NCCC1=CCCCC1,26,123,-4,i,0.89,/,100
CC1(c2ccccc2)CC2CC(c3ccccc3)N1O2 (centres undefined),-18,96,-3,i,1,-0.6,102
COc1cc(OC)c(NC(=S)NCc2ccccc2)cc1Cl,/,/,7,i,1.1,/,92
CCN(CC)S(=O)(=O)c1ccc(C)c(NC(=O)COc2ccc(Br)cc2Cl)c1,/,/,-4,i,1.5,-1.6,98
CCOC(=O)c1[nH]c(C)c(CCC(=O)O)c1C,64&-83,91&106,0&-11,i,0.98&0.74,-1.2&-1.8,319&107
O=c1cc(NS(=O)(=O)c2ccccc2)nc(SCc2ccc(Cl)cc2)[nH]1,8,104,-2,i,0.84,-0.3,95
Cc1cc(NC(=O)CCC(=O)N(CC(=O)NCC2CCCO2)c2ccccc2C)no1 (centres undefined),12,134,-11,i,1,-0.9,103
Cc1cc(C(=O)CN2C(=O)NC3(CCCCC3)C2=O)c(C)n1C,/,/,-3,i,0.98,/,107
NC1=NC[C@H](CC2CCCCC2)N1CCc1cc(C(F)(F)F)cc(C(F)(F)F)c1,/,/,/,i,0.83,/,104
COc1ccc(C(=O)NNC(=O)c2ccncc2)cc1,-18,120,4,i,1.1,-0.9,101
CC1C2C(c3ccccc3)N(C)C(=O)N(C)C2N(C)C(=O)N1C (centres undefined),/,/,-2,i,0.99,-1.8,96
CN(CC(=O)Nc1ccccc1Cl)CC(=O)Nc1ccccc1[N+](=O)[O-],33,52,0,i,0.99,/,111
O=C(O)CCC(=O)Nc1cccc(C(=O)Nc2cccc(Cl)c2)c1,21,116,2,i,0.84,-1.5,107
CCN(CC)c1ccc(NC(=O)c2cccc(F)c2)c(C)c1,0,122,-4,i,0.57,-1.3,36
CC(C)N(C(=O)C[n+]1ccsc1N)c1ccccc1,/,/,3,i,1.1,/,98
CC1CC2=C(C(=O)O1)C(C)Nc1ccccc1N2 (centres undefined),-27,117,-3,i,1,0.7,22*
NS(=O)(=O)c1ccc(CNC(=O)CCSCCC(=O)NCc2ccc(S(N)(=O)=O)cc2)cc1,-61,165,7,i,0.91,/,98
Cc1ccc(Cn2nnnc2CN2CCC(c3nc4ccc(Cl)cc4[nH]3)CC2)cc1,/,/,-7,i,0.75,-0.2,101
CCN(C(=O)COc1ccccc1)C1CCCCC1,-24,112,-1,i,1.1,/,98
Cc1cccc(COCC(Cc2ccccc2)N2CCN(C(=O)c3cccc(C)c3)CCC2=O)c1 (centres undefined),-30,111,3,i,0.81,-1.7,105
CCOC(=O)c1c(-c2ccccc2)csc1NC(=O)c1cccc(N2C(=O)CCC2=O)c1,24,46,0,i,0.77,-0.8,105
COc1cc2c(cc1OC)C1(CCCCC1)CN(C)C2,/,/,/,i,1,/,101

# Next part:
mol,Insulin prom inh,Insulin prom inh cell count,PKD1 kinase inh,HSV replic up,HSV replic up primary fold,GALR2 ag,RGS16-Gao HTS
Cc1cc(F)ccc1NCc1ccccc1[N+](=O)[O-],39,77,1,i,1.1,/,107
COC(=O)[C@H](Cc1ccccc1)NC(=O)NCCC1=CCCCC1,-33,88,-8,i,1,-1.7,105
NS(=O)(=O)c1ccc(CCNC(=O)[C@@H]2CCCN2S(=O)(=O)c2ccccc2F)cc1,-32,111,-1,i,0.96,-3.7,94
Nn1c(SCc2ccccc2F)nnc1-c1ccncc1,/,/,/,i,1.1,/,96
O=C(Nc1nccs1)C1CCN(S(=O)(=O)c2cnc[nH]2)CC1,/,/,-11,i,0.9,-1.2,100
CC(C)N(C(=O)CO/N=C/c1cccc([N+](=O)[O-])c1)C(C)C,15,78,3,i,1,/,110
O=C(Cn1nnc2ccccc21)Nc1ccc([N+](=O)[O-])cc1,/,/,/,i,0.96,/,89
CC1CC(C)CN(S(=O)(=O)N2CCC(C(=O)NCCC3=CCCCC3)CC2)C1 (centres undefined),-21,46,-2,i,0.95,/,102
